# Screening results: PubChem BioAssay, Fisher Drug Discovery Resource Center
# NPYLR7 ag: agonists of mosquito NPYLR7 receptor, primary screen, cell-based, Aedes aegypti, calcium fluorescence, mosquito biting behavior | Aedes aegypti neuropeptide Y-like receptor 7 (NPYLR7) | HEK293T NPYLR7/Galpha15, GCaMP6s calcium fluorescence | activation, % at 10 µM | hit rate 0.15% among 270,000 | AID 1259423, 2018; in the data active means activation above about 40%;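 further: 0% = vehicle and 100% = reference agonist at the receptor; some compounds past the cut are filed as inactive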
# NPYLR7 ag max-min: recorded beside NPYLR7 ag, whose call it bears; activation, %; measured here: Max-Min RFU normalised activation; some inactives read as strong as hits;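 span of the calcium signal over five minutes; 0% = vehicle and 100% = native peptide agonist; compound fluorescence can raise it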
# The depositor's hits bear a star; & = joins results of further samples. A portion of the library. The share of hits here may be higher or lower than overall.
Compound	NPYLR7 ag	NPYLR7 ag max-min
O=C(CN1C(=O)CCC1=O)N1CCN(Cc2nc3ccccc3n2Cc2ccccc2)CC1	-1	-2
Cc1cccc(C2=N/C(=C/c3cccs3)C(=O)O2)c1	-5	-11
CC(=O)c1c(C)[nH]c(C(=O)OCC(=O)c2cc(C)n(CC3CCCO3)c2C)c1C (centres undefined)	-1	-3
CCOC(=O)C1CCCN(C(=O)c2coc(CN(Cc3ccc4c(c3)OCO4)Cc3ccccc3Cl)n2)C1 (centres undefined)	-1	-1
NC(=O)[C@@H]1CN(C(=O)OCc2ccccc2)[C@H]2c3ccccc3O[C@@H]12	0	10
CC(=O)N1Cc2ccccc2C[C@H]1C(=O)N(C)Cc1cnc(C)s1	3	-2
O=C(Nc1cc(Cl)ccc1Cl)C1CCCN1CCn1c(=O)oc2ccccc21 (centres undefined)	3	3
CC1=CC2=C(OC1N(C)C)c1cccc3cccc(c13)C2=O (centres undefined)	-1	-5
Cc1nc(CN(C)Cc2nc3ccccc3n2CC(C)C)no1	0	23
Cc1ccc2cccc(OC(=O)C=Cc3cccc(F)c3)c2n1	-7	-11
N#CC1C(=N)Oc2cc(N)ccc2C1c1ccc(Cl)cc1 (centres undefined)	5	4
O=C1CSC(=NCc2ccccc2)N1/N=C\c1ccc(Br)cc1	0	-1
CCCOc1cc2nnnn2c(SC)n1	-1	-5
O=C(CCn1ccc(=O)[nH]c1=O)NC1CCCN(C2CCCCCC2)C1 (centres undefined)	4	1
C=CCCC(O)CN(CCN1CCOCC1)Cc1c(-c2ccccc2)noc1N1CCOCC1 (centres undefined)	2	4
COc1ccc(CN(C)C(=O)CC(=O)Nc2cc(C)cc(C)c2)c2cccnc12	16	1

# Reformatted field by field: 4 of the compounds above.
structure: N#CC1C(=N)Oc2cc(N)ccc2C1c1ccc(Cl)cc1 (centres undefined)
- NPYLR7 ag: 5
- NPYLR7 ag max-min: 4
structure: O=C1CSC(=NCc2ccccc2)N1/N=C\c1ccc(Br)cc1
- NPYLR7 ag: 0
- NPYLR7 ag max-min: -1
structure: CCCOc1cc2nnnn2c(SC)n1
- NPYLR7 ag: -1
- NPYLR7 ag max-min: -5
structure: O=C(CCn1ccc(=O)[nH]c1=O)NC1CCCN(C2CCCCCC2)C1 (centres undefined)
- NPYLR7 ag: 4
- NPYLR7 ag max-min: 1

# Later entries.
Compound	NPYLR7 ag	NPYLR7 ag max-min
Cn1cc(C2CCN(C(=O)c3c(F)cccc3C(F)(F)F)CC2)c2ccccc21	34	26
Cc1ccccc1C(=O)N1CCCC1(C)C(=O)O (centres undefined)	1	-2
O=C1C2C3C=CC(C2C(=O)N1C1CCCCC1)C1C2C(=O)N(C4CCCCC4)C(=O)C2C31 (centres undefined)	-7	-12
CCS(=O)(=O)N1CCCN(c2nc3ccccc3c3nnc(-c4cccs4)n23)CC1	4	2
CCN(CC)c1ccc(C2NC(=O)NC(C)=C2C(=O)OC2CCC(C)CC2)cc1 (centres undefined)	3	2
CC(Nc1ccc(-c2ccccc2)cc1)C(=O)NC(C)(C#N)C(C)C (centres undefined)	6	2
COc1ccc(C(=O)OC2C=C(C)CCC34OC(=O)C(C)C3CC(=O)C24C)cc1 (centres undefined)	-10	-13
CC(/C=C1\N=C(c2cccc(Cl)c2Cl)OC1=O)=C\c1ccccc1	-2	-4
CN1CCCc2cc(CNC(=O)N3CCOC(c4ccccc4)C3)ccc21 (centres undefined)	-25	-22
CCn1c(SCc2ccc(C(=O)Nc3ccc(C)c(C)c3)cc2)nnc1-c1cccc(OC)c1	4	14
O=C(Nc1cccc2c1CCN(Cc1cccc3c1OCO3)C2)c1ccncc1	10	5
CCCCCCCOc1ccc(C(=O)NC2C=CC(C(C(=O)OC)c3ccc(OC)cc3)C2)cc1 (centres undefined)	7	5
Cc1cccc(NC(=S)Nn2cnnc2)c1C	-6	-11
FC(F)(F)c1cccc2c(N3C[C@@H]4[C@H](C3)[C@H]3CC[C@@H]4O3)ccnc12	6	4
NC(=O)Cn1c(CO)cnc1SCC(=O)Nc1ccc(C(N)=O)cc1	6	1
CC1CCN(c2nc3ccccc3nc2C(C#N)C(=O)OC2CCCCC2)CC1 (centres undefined)	8	-8
CCCn1c(=O)c2c(nc3n2CCCN3c2ccc(OCC)cc2)n(C)c1=O	20	15
COc1cc(/C=N\N=C2/NC(=O)C(CC(=O)Nc3ccc(C)c(Cl)c3)S2)ccc1O (centres undefined)	-1	-2
COc1ccc(CCOC(=O)[C@@H]2CCCN2C(=O)c2c(-c3ccccc3Cl)noc2C)cc1OC	-3	-9
C=CCn1c(SCc2ccc(C(=O)N3CCN(CC)CC3)cc2)nnc1-c1ccc(C)cc1	-5	1
O=S(=O)(Cc1ccccc1Cl)Oc1cccc2cccnc12	-6	-11
COc1ccc(C2CCCCCN2Cc2nc3ccccc3c(=O)[nH]2)cc1 (centres undefined)	6	4
CCOC(=O)C1C(=O)C=C(c2cccc(OC)c2)CC1c1cccs1 (centres undefined)	4	9
CCOC(=O)C1=C(CN2CCOC(c3ccc(F)cc3)C2)NC(=O)NC1 (centres undefined)	3	3
Cc1cc(Br)ccc1N1C(=O)/C(=C/c2ccc(-c3ccc([N+](=O)[O-])cc3)o2)C=C1c1ccccc1	-1	1
CCOc1ccc2nc(N3CCCN(Cc4cccn4-c4cccnc4)CC3)nc(C)c2c1	12	4
CN(C)S(=O)(=O)c1cccc(NC(=O)C=Cc2ccc3c(c2)CCO3)c1	-18	-18
CNC(=O)C(C)N(C)Cc1cccc(C(=O)OC)c1 (centres undefined)	1	-1
CN1CC2(CCN(C(=O)c3ccc(-n4cccn4)cc3Cl)C2)OC1=O (centres undefined)	9	5
Cc1c(C)n2c3c(=O)n(CCC(C)C)c(=O)n(C)c3nc2n1Cc1ccco1	3	1
O=C1CCc2cc(OCCCC(=O)N3CC(=O)Nc4cccnc43)ccc2N1	-2	-2
CSc1nnc2c(n1)OC(c1ccncc1)Nc1ccccc1-2 (centres undefined)	-3	-4
CC1CCN(CCCNC(=O)C2CCCN2C(=O)Cc2cccs2)CC1 (centres undefined)	0	-4
CC(CC(=O)NCCc1ccco1)S(=O)(=O)c1ccc(F)cc1 (centres undefined)	-6	-6
O=C1NC(c2ccc(Br)cc2)=C(c2ccccc2)C1=O	12	7
CN1CCN(C(c2ccc(Cl)cc2)c2cc(Cl)c3cccnc3c2O)CC1 (centres undefined)	1	-1
CCn1c(CCNC(=O)N2CCCCCCC2)nc2ccccc21	5	1
COc1ccc(C2(CNC(=O)c3ccc(Cl)cc3Cl)CCOCC2)cc1OC	-1	-3
COCCN(CC(=O)Nc1cc(C(C)(C)C)nn1-c1ccc(C)cc1C)C(=O)c1cc(OC)cc(OC)c1	-1	3
Cc1cc(C#N)ccc1S(=O)(=O)Nc1ccc(-c2ncn[nH]2)cc1	6	1
NS(=O)(=O)c1ccc(N2CCC(OCc3ccccc3)CC2)nc1	1	2
CC(C)CN1CC(C(=O)NCCc2n[nH]c3c2CCCC3)CC1=O (centres undefined)	-7	-10
COC(=O)Cn1c(=NC(=O)c2ccn(C)n2)sc2cc(C)ccc21	1	5
OCc1ccccc1-c1cccc(CN2CCCC2)c1	10	6
CCn1cc(C(=O)Nc2nnc(C)s2)c2nn(-c3ccccc3)c(=O)c-2c1	7	9
C=CCN1C(=O)/C(=C\c2cccc(OC)c2OC)SC1=S	-5	-8
Cc1nn(-c2cccc(Cl)c2)c(C)c1C(=O)N1CCCC1	7	8
CCc1sc2[nH]c(=S)n(Cc3ccc(C)cc3)c(=O)c2c1C	2	2
CC(=O)NCCC1=CCCN(Cc2ccc(C(F)(F)F)nc2)C1	6	3
COc1ccc(N(CCN2C(=O)c3cccc4c(Br)ccc(c34)C2=O)C(=O)c2cc(C)cc(C)c2)cc1	-5	-9
Cc1ccc(-n2ccnc(SCc3cccc(C)c3)c2=O)cc1	10	11
C/C=C/C(=O)Nc1ccccc1-c1c(Cl)cccc1OC	6	4
c1csc(-c2noc(CSc3ccc4ccccc4n3)n2)c1	0	-1
CO[C@H]1CN(Cc2cc3ccccc3o2)[C@@H]2CC[C@@H](OC)[C@@H]1C2	22	20
COc1cccc(Cc2nsc(Oc3ccc(CC(=O)N4CCN(c5cccc(Cl)c5)CC4)cc3)n2)c1	-12	-8
CCOc1ccc(CC(=O)N2CCC(n3cnc4ccccc43)CC2)cc1	27	14

# Random excerpt: 6 entries already listed, in no set order.
Compound	NPYLR7 ag	NPYLR7 ag max-min
C/C=C/C(=O)Nc1ccccc1-c1c(Cl)cccc1OC	6	4
c1csc(-c2noc(CSc3ccc4ccccc4n3)n2)c1	0	-1
COc1cccc(Cc2nsc(Oc3ccc(CC(=O)N4CCN(c5cccc(Cl)c5)CC4)cc3)n2)c1	-12	-8
CC(=O)NCCC1=CCCN(Cc2ccc(C(F)(F)F)nc2)C1	6	3
CO[C@H]1CN(Cc2cc3ccccc3o2)[C@@H]2CC[C@@H](OC)[C@@H]1C2	22	20
Cc1ccc(-n2ccnc(SCc3cccc(C)c3)c2=O)cc1	10	11

# The list continues.
Compound	NPYLR7 ag	NPYLR7 ag max-min
O=C(Nc1nc(CCC(=O)N2CCN(c3ncccn3)CC2)cs1)c1ccc[nH]c1=O	-10	-12
CCC(C)N(CC(=O)N(Cc1cccn1Cc1ccccc1)C1CCCCC1)C(=O)c1cccc(F)c1 (centres undefined)	-1	5
CCCc1cc(CNC(=O)CN(c2cccc(C)c2)S(C)(=O)=O)on1	17	4
C=CCc1cccc2cc(C(=O)Nc3ccccc3C(=O)O)c(=O)oc12	-9	-14
Cc1nc(NC(=O)Nc2sc(=S)n(C)c2C)sc1C(=O)Nc1ccccc1	0	-2
CC[C@H](C)CSc1nnc(CC2CCNCC2)n1C	-1	-5
COc1ccc2c(c1)OC[C@@H]1CN(CC(C)(C)O)C(=O)CCN(C(=O)c3ccco3)[C@H]21	5	16
CN(CCCNC(=O)CCCc1ccc(NC2OC(C3COC(C)(C)O3)[C@@H]3OC(C)(C)O[C@H]23)cc1)c1ccccc1 (some centres undefined)	-11	-15
O=C1CC(C(=O)N2CC(=O)N(C3CCCCC3)CC(OCc3cccnc3)C2)c2ccccc21 (centres undefined)	6	0
CCOC(=O)C1(Cc2ccccc2C(F)(F)F)CCN(Cc2ccc(OC)c(O)c2)CC1	13	10
Cc1cccc(NC(=O)CSc2nc(N)c(NC(=O)c3ccccc3F)c(=O)[nH]2)c1	-1	-5
CC(C)(C(=O)O)C(O)c1cccc(O)c1 (centres undefined)	-1	25
Nc1nccc(N2C[C@H]3CC=CC[C@H]3C2)n1	-3	0
O=C(N[C@H]1CCCC[C@H]1C(=O)NNc1nccc(C(F)(F)F)n1)c1ccccc1	-3	8
CCC(c1cccnc1)N(C)Cc1cc2cc(C)cc(C)c2[nH]c1=O (centres undefined)	0	1
O=C(C1CCC1)N1CCN(C(C(=O)N2CCOCC2)C2CCCC2)CC1 (centres undefined)	-4	-1
CC(NC(C)C(C)n1cccn1)c1nc2ccccc2c(=O)[nH]1 (centres undefined)	3	2
CCCC(=O)OCC(O)CN(CCOC)Cc1cccc(OC)c1 (centres undefined)	-5	-4
CSc1ncc(CNC2CC(=O)N(CC(C)(C)C)C2)cn1 (centres undefined)	-19	-18
COc1ccc(NC2CCCN(C(=O)CN3CCOC3=O)C2)cc1 (centres undefined)	17	7
COc1cccc(-c2cccc(NC(=O)C3CCN(C4Cc5ccccc5C4)CC3)c2)c1	11&7	8&2
COc1ccc(C(N)P(=O)(O)O)cc1OC (centres undefined)	-5	-11
NC1=NC2(CCCCC2)N(c2ccc(Cl)cc2)C(N)=N1	-1	-5
COc1ccc2nc(-c3ccc(F)c(NC(=O)Nc4ccccc4C)c3)cn2n1	-3	-3
Cc1cccc(-c2nc3scc(CCNC(=O)c4ccccc4)n3n2)c1	5	4
CCOc1ccc(C(=O)Nc2c(C)nn(C)c2C)cc1OC	1	-1
CCc1ccccc1C1c2cccn2CCCN1Cc1cc(C)ccc1O (centres undefined)	2	10
O=C(NCc1cccnc1)c1ccc2sc([C@@H]3O[C@H](CO)[C@H](O)[C@H](O)[C@H]3O)nc2c1	-6	-7
Cc1cc2c(cc1C)[n+](C)cn2CC(O)COc1ccc(C(C)C)cc1 (centres undefined)	5	5
CC(C)CNc1ccc2c(n1)C(=O)N([C@H](C)C(=O)NCc1ccccc1)C2	4	1
N#CCCN(C(=O)COC(=O)c1cc(Cl)ccc1O)c1ccccc1	-2	-2
O=C(c1c(F)cccc1F)N1CCOC(c2ccc(Cl)cc2)C1 (centres undefined)	-7	-4
Cc1ccc(F)c(CC(=O)N2CCOC(COCc3ccc(F)cc3Cl)C2)c1F (centres undefined)	23	19
COC(=O)C(O)(c1ccc(NC(=O)c2c(F)c(F)c(F)c(F)c2F)c(C)c1)C(F)(F)F (centres undefined)	3	5
O=C(Nc1cnc2n1CCCC2)c1ccccc1-c1ncc[nH]1	6	3
CC(=O)N1CCN(C[C@H]2CC[C@@H](Cc3ccc4occc4c3)O2)CC1	2	1
CC(O)(c1ccc(F)c(F)c1)c1nc(-c2cnc3ccccc3c2)cs1 (centres undefined)	7	1
Cn1ccsc1=NC(=O)C=Cc1ccc2c(c1)OCO2	2	0
O=C1CN(c2c(F)cccc2F)C(=O)CN1c1c(F)cccc1F	14	6
COc1ccc(C=C2C(=O)NC(=S)N(c3cc(C)cc(C)c3)C2=O)cc1C	7	4
Fc1ccccc1-c1noc2nc(Oc3cccc(N4CCOCC4)c3)ccc12	-1	-2
Cc1nn(S(=O)(=O)c2ccc(Cl)c(Cl)c2)c(C)c1S(=O)(=O)N1CCCCCC1	3	0
